PrP UTR inh – suppresses PrP 5' UTR mRNA reporter expression; AID 488862; cell-based PrP 5' UTR mRNA reporter, plate reader; inhibition, % (test concentration not listed); 340,000 tested, 0.35% active;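 active = every replicate at 50% or more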;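 also: 0 = median of the neutral control wells; tested in H4 reporter cells; numbers are from one replicate; inactives centre near -14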
BJeLR lethal – BJeLR cell viability loss; BJeLR (HRASV12) viability, CellTiter-Glo ATP luminescence, 48 h; reference of the scale not given here; inhibition, % (no concentration beside the values); 300,000 tested, 0.17% active; AID 1554;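 active = replicate mean above 50%; inconclusive = above 50% but judged a plate artefact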;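 also: 50 nL library stock added to about 25 µL; numbers are from one replicate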
Mtb hypoxia inh – inhibitors of hypoxia-regulated fluorescent reporter in Mycobacterium tuberculosis. fluorescence inhibition, % (no concentration beside the values). M. tuberculosis hypoxia-regulated fluorescent reporter, fluorescence. 300,000 tested, 0.1% active. AID 1159583;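 active = 35 to 45% if threefold the growth effect, above 45% if 1.5-fold the growth effect; inactive = the rest, general growth blockers included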;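 also: wells of about 50 µL received 100 nL stock; 0% = vehicle wells and 100% = reference inhibitor wells; whole bacteria with a GFP reporter of the hypoxia response; strong numbers were not always called active; many hits fall short of the cut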
Bead autofluor – flagged as autofluorescent in microsphere protease counterscreen. compound autofluorescence counterscreen, microsphere flow cytometry; stronger effect = higher value. AID 624483. fluorescence intensity (concentration not given with the values). 360,000 tested, 3.1% active;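 active = at least 3 SD above the mean of all compounds, about 16000 in these data; inconclusive = too few beads counted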;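 also: 100 nL of 1 mM stock went into each well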
RN4220 kill – S. aureus RN4220 growth inhibition; OD600, 16 h; inhibition, % (concentration not given with the values); 330,000 tested, 0.33% active; AID 1259311;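 active = z-score of -3 or lower and OD600 up to 0.18 on both plates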;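 also: plate controls were untreated cells for no effect and reference antibiotic for full effect; stock transfer was 100 nL into about 80 µL; one replicate is shown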
Sa ugtP lethal – growth inhibition of S. aureus ugtP deletion strain | S. aureus RN4220 ugtP deletion, OD600 growth, 16 h; some inactives read as strong as hits | growth inhibition, % (test concentration not listed) | 330,000 tested, 0.54% active | AID 1259309;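 active = z-score under -3 and OD600 up to 0.15 on both plates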;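 also: plate controls were untreated wells for no effect and antibiotic for full effect; wells of about 80 µL received 100 nL stock; the first replicate is given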
Mtb hypoxia inh growth – also measured in Mtb hypoxia inh; calls as there; growth inhibition, %; measured here: M. tuberculosis growth (absorbance);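 0% = vehicle and 100% = reference antibiotic; read after six days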
An asterisk follows results filed as active; ? = inconclusive; . = no result given.

SMILES	PrP UTR inh	BJeLR lethal	Mtb hypoxia inh	Mtb hypoxia inh growth	Bead autofluor	RN4220 kill	Sa ugtP lethal
CC(=O)N1CCN(Cc2nc(C(c3ccccc3)c3ccccc3)no2)CC1	-14	7	-9	5	4640	-0.5	3
S=c1[nH]c2ccccc2o1	-17	0	15	4	2714	0.4	6
CCOC(=O)N1CCC(NC(=S)Nc2ccc3nc(N4CCN(CC)CC4)cc(C)c3c2)CC1	-2	20	1	-3	4586	1.5	3
CN(CC(=O)Nc1cccc2ccccc12)C(=O)c1ccc(F)cc1F	-12	.	-4	-8	4029	-0.1	0
CCCn1c(SCC(=O)NNC(=O)c2ccc(C)cc2)nnc1C(C)C	-22	3	5	2	3518	2.8	7
O=C(CN1CCc2cc3c(cc2C1)OCCCO3)Nc1ccc(F)cc1	6	-9	5	12	5910	-3.2	4
Cn1ccnc1Sc1nnnn1-c1ccccc1	-56	-2	8	4	20712*	5.6	-6
CCOC(=O)C1CCN(C(=O)c2sc3ncnc(N4CCC(C)CC4)c3c2C)CC1	-4	10	3	-8	16307*	3.0	4
OC(CNC1CCCCC1)c1ccccc1 (configuration not stated)	-33	-4	10	16	3538	-12	-9
Cc1cc(=O)n2nc(N3CCC(C(=O)NCC(C)c4ccccc4)CC3)sc2n1 (configuration not stated)	-42	6	-5	11	5388	1.8	7
COc1ccc(CC(=O)NNC(=O)c2ccoc2C)cc1OC	.	-7	9	-5	7924	-3.7	4
Cn1cnc2ccc([N+](=O)[O-])cc2c1=O	-18	-1	-14	13	2518	2.2	14
C/C(=N\N1CCN(C)CC1)c1c(O)n(Cc2ccccc2)c(=O)[nH]c1=O	-40	7	17	7	2621	3.0	5
Cc1cccc(N(CC(=O)NC(C)(C)C)C(=O)CCC(=O)Nc2nccs2)c1	5	8	23	7	3037	6.1	3
CCN1C(=O)N(C)C2(c3ccccc3)N(C)C(=O)N(C)C12c1ccccc1 (configuration not stated)	-17	0	.	.	2403	1.2	2
COC(=O)c1c(-c2ccc(OC)c(OC)c2)csc1N	1	2	.	.	4384	0.7	2
Cc1c(C)n(CCC#N)c2ccc(Cl)cc12	-5	-10	6	-3	2537	5.4	-10
COc1ccc(C=NNC(=O)C[n+]2ccccc2)c(OC)c1	.	.	7	7	.	2.3	8
CC(C)C(c1nnnn1C1CCCCC1)N1CCCc2ccccc21 (configuration not stated)	6	26	.	.	3352	23	1
CCOc1cc(C(=O)OCC(=O)Nc2ccc(F)cc2Cl)ccc1OCC(=O)N1CCOCC1	-2	.	1	10	5986	3.5	3
CCSP1(=S)N=C(N2CCOCC2)C(C#N)=C2CCCN21 (configuration not stated)	-1	-6	-2	4	2957	5.5	-7
CCCCNC(=O)N(O)C1N(N=Cc2cccs2)C(=S)SC1(C)C (configuration not stated)	.	.	9	7	.	2.5	14
CN1CCN(S(=O)(=O)c2ccc(N(C)Cc3c(F)cccc3Cl)nc2)CC1	-2	.	15	4	.	6.0	6
COc1ccc(-n2ncc3c2CC(C)(C)CC3NC(=O)CCc2c(C)nn(C)c2C)cc1 (configuration not stated)	-21	-1	2	1	5784	6.2	-7
CCCCOC(=O)C1=C(C)Nc2ncnn2C1c1ccc(OC)c(OC)c1OC (configuration not stated)	-15	-5	5	9	23980*	-0.3	-3
CCOC(=O)CCSCC(=O)N1N=C(c2cccs2)CC1c1ccc(C)cc1 (configuration not stated)	-8	1	-5	7	1927	-6.2	-18
CC(=O)c1ccc(N2C(=O)[C@@H]3[C@H](C2=O)[C@H]2c4ccccc4C=NN2[C@@H]3C(C)=O)cc1	-13	1	-7	-1	3514	0.6	8
CC(C)Oc1ccc(C(CC(=O)NCCCN(C)C)c2ccc(F)cc2)cc1 (configuration not stated)	-19	-9	5	9	2349	2.2	-1
C#CCOCCOCCOCCNc1nc(N2CCN(C(=O)[C@H]([C@@H](C)CC)n3cc([C@@H](N)Cc4ccc(O)cc4)nn3)CC2)nc(N2CCN(C(=O)[C@H](CCCCN)n3cc([C@@H](N)C(C)CC)nn3)CC2)n1 (some centres not stated)	-14	7	.	.	5065	.	.
c1ccc(Cn2ccc(-c3cnc(-c4ccccc4)s3)n2)cc1	-52	-2	.	.	2094	-5.4	14
COc1cc2[nH]c3c(N4CCN(c5ccccn5)CC4)ncnc3c2cc1OC	-22	14	6	0	2967	8.7	-4
CS(=O)(=O)N(CC(=O)Nc1cccc(F)c1)c1cccc([N+](=O)[O-])c1	-11	2	6	11	10370	1.2	-2
CCc1ccc(OCC(=O)NC(NC(=S)Nc2ccc(C)cc2C)C(Cl)(Cl)Cl)cc1 (configuration not stated)	-6	2	.	.	2789	-6.2	-7
O=C(CNc1ccccc1C(=O)O)c1ccccc1	-22	-1	16	5	6224	0.4	3
COc1ccc(C(=O)OCC(=O)NC(=O)NC2CCCC2)cc1[N+](=O)[O-]	-9	.	19	8	4250	6.6	-5
CCOc1cccc2c1OC1(C)CC2NC(=O)N1Cc1ccccc1 (configuration not stated)	-12	6	-1	-3	3850	3.0	-3
COc1ccccc1CNC(=O)CN(CCc1ccccc1)S(C)(=O)=O	-8	1	2	1	2093	6.6	11
CC(C)N(C(=O)COc1ccc(Br)cc1Cl)C(C)C	-20	4	5	7	5138	8.6	-8
CCCCC(=O)NC(N1CCCCC1)C(Cl)(Cl)Cl (configuration not stated)	-15	3	.	.	2611	-5.5	-2
Cc1nc(NC(=O)COC(=O)C2CC2C)c(Cl)cc1Cl (configuration not stated)	-5	.	15	7	3657	5.6	3
COc1ccccc1-c1nc2n(n1)C(c1ccccc1Cl)C(C(N)=O)=C(C)N2 (configuration not stated)	-4	-11	.	.	6461	4.7	10
CC1NC(=O)[C@@]2(C)C(c3ccccc3)C3COc4ccc(Cl)cc4C3N2C1=O (some centres not stated)	.	.	-6	3	.	6.0	1
O=C(Nc1nc(-c2ccc(-c3ccccc3)cc2)cs1)c1cc([N+](=O)[O-])ccc1N1CCOCC1	-39	1	6	2	4575	2.2	13
COc1cccc(C(=O)COC(=O)C2CC(=O)N(c3ccc(Oc4ccccc4OC)cc3)C2)c1 (configuration not stated)	-17	-14	4	10	5164	1.7	4
Cc1ccc(C(=O)NCC(=O)Nc2ccc3c(c2)OCCO3)cc1	-25	0	0	-4	5163	3.8	9
Cc1ccccc1Nc1c(-c2ccncc2)nc2ccc(Cl)cn12	-6	13	4	3	4854	0.4	2
N#CC(=NNc1ccccc1[N+](=O)[O-])C(N)=S	.	.	6	9	.	9.5	-7
C#CCn1c(S(=O)(=O)Cc2ccc(F)cc2)nc(-c2ccccc2)c1-c1ccccc1	14	21	5	3	16327*	-2.5	31
Cc1ccccc1-n1c(SCC(=O)Nc2ccc3c(c2)OCO3)nnc1-c1ccccn1	0	-1	11	5	7308	10	8
COc1nc(Nc2ccccc2F)nc(OC)n1	-2	-11	-14	-6	3193	3.9	3
Other compounds
SMILES	PrP UTR inh	BJeLR lethal	Mtb hypoxia inh	Mtb hypoxia inh growth	Bead autofluor	RN4220 kill	Sa ugtP lethal
CC1(C)CC(=O)C2=C(C1)N(c1ccccc1)C(N)=C(C#N)C2c1cccnc1 (configuration not stated)	-19	4	.	.	3013	-1.2	6
O=C(CN1C(=O)NC2(CCCCC2)C1=O)NCc1cccs1	-7	-2	7	-4	2029	-1.1	12
CCCOc1c(OC)cccc1C1CC(=O)Nc2cc(OC)c(OC)c(OC)c21 (configuration not stated)	15	3	.	.	3981	0.1	0
O=C1CCCCCC1C1(O)C(=O)Nc2ccccc21 (configuration not stated)	-10	7	.	.	5872	2.8	2
COc1ccccc1OCc1nnc(SCC(=O)NCc2ccco2)n1-c1ccccc1	7	1	9	2	9165	3.4	9
Cc1cccn2c(=O)c3cc(C(=O)NCCc4ccccc4)c(=N)n(Cc4ccco4)c3nc12	5	6	-1	16	3758	0.3	2
Cc1ccc(C2=NN3C(C2)c2ccccc2OC32C(=O)Nc3ccccc32)cc1 (configuration not stated)	-80	-4	.	.	3483	-4.9	4
CCc1ccccc1OCC(=O)Nc1cccc(S(=O)(=O)NCc2ccco2)c1	-12	.	12	5	5047	6.8	3
O=C(O)CCSC1CC(=O)N(c2ccccc2)C1=O (configuration not stated)	-3	-1	6	-3	4458	0.9	1
Cc1ccc(C=NNC(=O)CN2CCN(Cc3ccccc3)CC2)s1	.	.	3	0	.	2.0	0
O=[N+]([O-])c1cccc(C=NNC2=NCCCCC2)c1	.	.	13	2	.	3.1	3
CCOC(=O)CCNC(=O)CCc1nnc(CCCc2ccccc2)o1	-20	0	-1	12	3694	1.6	-1
COc1ccc(-c2nnc(SC(=O)N3c4ccccc4Sc4ccccc43)o2)cc1	-5	16	-2	-2	10400	11	1
CCc1nnc(NC(=O)c2cccc(S(=O)(=O)N(C)c3ccc(OC)cc3)c2)s1	-11	5	13	10	3252	11	3
CCCCCCN1C=CC(=C2C(=O)c3ccccc3C2=O)C=C1	72*	16	13	14	4322	5.7	1
CSc1ccccc1NC(=O)c1cc(S(=O)(=O)N(C)C)ccc1N1CCCC1	-4	14	-2	-5	7414	2.1	4
COCCNC(=O)[C@@H]1CCCN1C(=O)C1CCN(S(=O)(=O)c2ccc(C)cc2)CC1	-9	4	0	5	6110	-2.2	-3
O=C1c2ccccc2C(=O)N1Cc1nc(-c2ccncc2)no1	-12	-6	7	3	7753	2.0	2
Cc1csc(NC(=O)c2ccc3c(=O)n4c(nc3c2)CCCCC4)n1	-79	0	-2	-6	2205	6.1	-8
CC(C)CCNC(=O)NC(=O)COC(=O)/C=C/c1cnc2ccccc2n1	1	-5	.	.	5060	0.1	4
COc1cc(C#Cc2ccc3cc(CCO)oc(=O)c3c2)cc(OC)c1	-45	.	-3	1	2659	8.4	30
COc1ccccc1N1CCN(C(=O)c2ccc3ncsc3c2)CC1	-34	.	-4	-7	5747	-2.0	-8
COc1ccccc1CNC(=O)Cn1c(=O)oc2cc(Cl)ccc21	-5	-6	2	-5	4681	10.0	6
C=CCn1c(SCC(=O)Nc2cccc3ccccc23)nc(O)c(CC)c1=O	-23	5	12	13	10737	3.1	9
CCOc1ccc(CC(=O)Nc2cc(=O)n(C)c(=O)n2C)cc1	-4	-1	17	9	4985	5.4	5
C=CCC1(CC=C)CCCN1C(=O)CC1C(=O)NCCN1Cc1ccccc1OC (configuration not stated)	12	-7	-3	-5	2633	7.1	11
O=C(NNc1cccc(Cl)n1)c1c(F)cccc1F	-8	3	-8	6	3350	1.7	3
COc1ccc(-c2ccc(OC)c(C3C4C=CCC(C)C4C(=O)N3Cc3ccccc3)c2)cc1 (configuration not stated)	.	.	3	2	.	-7.5	6
COc1ccc(C(C)=O)cc1COC(=O)c1ccc(C)c(S(=O)(=O)N2CCOCC2)c1	3	.	-11	-1	6133	7.1	-7
COc1ccc(-n2c(SC3CCOC3=O)nc3ccccc3c2=O)cc1Cl (configuration not stated)	3	6	10	7	4444	0.9	13
O=C(NCc1cccnc1)C1CCN(S(=O)(=O)N2CCC3(CC2)OCCO3)CC1	-34	-9	6	8	11140	1.8	6
O=C(NCC(=O)N1CCN(C(=O)c2ccco2)CC1)c1ccc(Br)cc1	-17	-12	.	.	?	.	.
Cc1nc2ccc(C(=O)NCc3ccc4c(c3)OCO4)cc2s1	-10	1	1	9	4569	-0.9	7

Random excerpt: 6 records from the list
SMILES	PrP UTR inh	BJeLR lethal	Mtb hypoxia inh	Mtb hypoxia inh growth	Bead autofluor	RN4220 kill	Sa ugtP lethal
COc1cc(C#Cc2ccc3cc(CCO)oc(=O)c3c2)cc(OC)c1	-45	.	-3	1	2659	8.4	30
COc1ccc(-n2c(SC3CCOC3=O)nc3ccccc3c2=O)cc1Cl (configuration not stated)	3	6	10	7	4444	0.9	13
COc1ccc(C(C)=O)cc1COC(=O)c1ccc(C)c(S(=O)(=O)N2CCOCC2)c1	3	.	-11	-1	6133	7.1	-7
CCOc1ccc(CC(=O)Nc2cc(=O)n(C)c(=O)n2C)cc1	-4	-1	17	9	4985	5.4	5
O=C(NNc1cccc(Cl)n1)c1c(F)cccc1F	-8	3	-8	6	3350	1.7	3
COc1ccc(-c2ccc(OC)c(C3C4C=CCC(C)C4C(=O)N3Cc3ccccc3)c2)cc1 (configuration not stated)	.	.	3	2	.	-7.5	6

Rows were taken by chance; about 4% have a hit in one of these screens.
